Vaccinia stage – Vaccinia orthopox stage-specific inhibition. Vaccinia-infected cells, mCherry/Venus stage reporter fluorescence; hits give low values; some inactives read as strong as hits. activity change (mCherry), % (concentration not given with the values). actives 0.01% (n = 89,000);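 active means mCherry past -33% and 40 or more points under the early reporter, replicates agreeing; inconclusive means past -33% without that gap or agreement; tested in A549 cells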;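 further: scaled between vehicle wells and reference inhibitor wells; 23 nL library stock went into each well; one replicate is shown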
Vaccinia stage Venus – recorded beside Vaccinia stage, whose call it bears; activity change (Venus), %; measured here: Venus reporter, other viral stage;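 negative = less Venus signal; first of two replicates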
* = called active by the depositor; ? = inconclusive; . = not tested or not shown. Some of the compounds tested, so the mix of outcomes need not match the whole.

molecule | Vaccinia stage Venus | Vaccinia stage
CC(C)NC(=O)N(C)C[C@@H]1Oc2ccc(NC(=O)CCC(F)(F)F)cc2C(=O)N([C@@H](C)CO)C[C@H]1C | -3 | 5
CO[C@@H]1CN(C)C(=O)c2ccc(NC(=O)C3CCOCC3)cc2OC[C@@H](C)N(Cc2cccnc2)C[C@@H]1C | 18 | 23
COCC(=O)N1CC(=O)N2[C@H](C1)[C@H](c1ccc(C#CC3CC3)cc1)[C@@H]2CO | 1 | 2
C[C@@H]1CN([C@@H](C)CO)C(=O)c2cc(NC(=O)CCC(F)(F)F)ccc2O[C@@H](C)CCCCO[C@H]1CN(C)Cc1ccc(Cl)c(Cl)c1 | . | ?
CCCC#Cc1ccc([C@@H]2[C@H](CO)N3C(=O)CN(C(=O)c4ccccn4)C[C@@H]23)cc1 | 3 | 32
COCC(=O)N1CC(=O)N2[C@H](CO)[C@@H](c3ccc(C#CCc4ccccc4)cc3)[C@H]2C1 | -5 | 17
Cc1noc(C)c1NC(=O)N[C@H]1CC[C@H](CC(=O)Nc2ccccc2)O[C@@H]1CO | 4 | 4
COc1ccc(C#Cc2ccc([C@H]3[C@H](CO)N4CCCCN(C(=O)Cc5ccccc5)C[C@@H]34)cc2)cc1 | -3 | -16
C[C@@H]1CN([C@H](C)CO)C(=O)c2cc(N(C)C)ccc2O[C@@H](C)CCCCO[C@@H]1CN(C)S(C)(=O)=O | 17 | 19
CC(C)NC(=O)N1CC2(C1)[C@H](c1ccccc1)[C@H](CO)N2Cc1cccnc1 | 10 | -2
O=C(Cc1ccccc1)N1CC[C@@H]2[C@@H](CO)Nc3ccc(-c4ccccc4F)cc3[C@@H]21 | -14 | -21
C[C@H]1CN([C@@H](C)CO)C(=O)c2cc(NC(=O)Nc3ccc(C(F)(F)F)cc3)ccc2O[C@H]1CN(C)C | -17 | -16
C[C@H](CO)N1C[C@H](C)[C@H](CN(C)Cc2cccnc2)Oc2cc(C#CCN(C)C)ccc2S1(=O)=O | 6 | 8
C[C@@H]1CCCCO[C@@H](CN(C)Cc2ccc(Cl)c(Cl)c2)[C@H](C)CN([C@@H](C)CO)C(=O)c2cc(NS(=O)(=O)c3cn(C)cn3)ccc2O1 | . | ?
O=C(O)C[C@@H]1CC[C@H](NC(=O)Nc2ccccc2)[C@@H](CO)O1 | 1 | -5
CO[C@@H]1CN(C)C(=O)c2cc(NC(=O)Nc3ccccc3)ccc2OC[C@H](C)N(C(C)=O)C[C@@H]1C | 12 | 11
C[C@H](CO)N1C[C@H](C)[C@@H](CN(C)Cc2cccc(C(=O)O)c2)Oc2cc(C3=CCCCC3)ccc2S1(=O)=O | . | ?
C[C@H]1CCCCO[C@H](CN(C)S(=O)(=O)c2cccs2)[C@@H](C)CN([C@@H](C)CO)C(=O)c2cc(NS(C)(=O)=O)ccc2O1 | 12 | 15
CO[C@H]1CN(C)C(=O)c2ccc(NS(=O)(=O)c3cccc(Cl)c3)cc2OC[C@H](C)NC[C@H]1C | 2 | 7
O=C(NCc1ccc(F)cc1)[C@H]1[C@H](CO)[C@H]2Cn3c(cccc3=O)[C@@H]1N2C(=O)c1cnccn1 | 7 | 8
CCC(=O)N(C)C[C@@H]1Oc2cc(C#CCOC)ccc2S(=O)(=O)N([C@H](C)CO)C[C@@H]1C | -3 | 5
C[C@@H]1CN([C@@H](C)CO)S(=O)(=O)c2ccc(-c3ccncc3)cc2O[C@H]1CN(C)C | 3 | 10
CCC(=O)N1CC2(C1)[C@@H](c1ccc(-c3ccc(C)cc3)cc1)[C@@H](CO)N2S(C)(=O)=O | 6 | 7
CCC(=O)Nc1ccc2c(c1)C(=O)N(C)C[C@@H](OC)[C@H](C)CN(Cc1cccnc1)[C@H](C)CO2 | 2 | 6
Cc1ccccc1S(=O)(=O)N1C[C@H](O)COC[C@@H]2O[C@@H](CC(=O)N3CCN(C)CC3)CC[C@H]21 | 4 | -1
O=C(C[C@@H]1C=C[C@@H](NC(=O)Nc2ccc(C(F)(F)F)cc2)[C@H](CO)O1)NCc1ccccn1 | -7 | -14
COc1ccc(NC(=O)Nc2ccc3c(c2)C(=O)N([C@H](C)CO)C[C@H](C)[C@H](CN(C)Cc2ccc(C(F)(F)F)cc2)OCCCC[C@@H](C)O3)cc1 | -6 | -8
Cc1noc(C)c1S(=O)(=O)Nc1ccc2c(c1)C(=O)N([C@H](C)CO)C[C@H](C)[C@@H](CN(C)C(=O)Nc1cccc3ccccc13)O2 | 7 | 15
COc1ccc(S(=O)(=O)Nc2ccc3c(c2)CC(=O)N([C@H](C)CO)C[C@@H](C)[C@H](CN(C)Cc2ccc(C(=O)O)cc2)O3)cc1 | 12 | 10
O=C(O)C[C@H]1C[C@@H]2c3cc(NS(=O)(=O)c4ccccc4)ccc3O[C@@H]2[C@H](CO)O1 | 7 | 7
COCCNC(=O)[C@@H]1[C@@H](CO)[C@@H]2Cn3c(ccc(-c4ccc(F)cc4)c3=O)[C@H]1N2C(=O)NC(C)C | 5 | 5
CN(C)Cc1cn(CC[C@@H]2CC[C@H](NC(=O)Cc3cccnc3)[C@@H](CO)O2)nn1 | 13 | 25
C/C=C/c1cnc2c(c1)C(=O)N([C@H](C)CO)C[C@@H](C)[C@@H](CN(C)C(=O)CN1CCOCC1)O2 | 2 | -2
C[C@H]1CN([C@@H](C)CO)C(=O)Cc2cc(NC(=O)CCC(F)(F)F)ccc2O[C@H]1CN(C)C(=O)Nc1ccccc1 | 0 | -3
C[C@H]1CN([C@@H](C)CO)C(=O)c2cccc(NC(=O)c3nc4ccccc4s3)c2O[C@H]1CN(C)S(=O)(=O)c1cccs1 | 6 | 11
C[C@H]1CN([C@@H](C)CO)C(=O)c2cccc(NC(=O)C3CCOCC3)c2O[C@H]1CN(C)Cc1ccc(C(F)(F)F)cc1 | 16 | 12
Cc1ccc(-c2cnc3c(c2)C(=O)N([C@@H](C)CO)C[C@@H](C)[C@H](CN(C)C(=O)c2ccc(F)cc2)O3)cc1 | 0 | 2
CCCC#Cc1ccc2c(c1)O[C@@H](CN(C)C(=O)COC)[C@@H](C)CN([C@H](C)CO)S2(=O)=O | -1 | 16
CCS(=O)(=O)N[C@H]1C=C[C@H](CC(=O)NCc2ccc(F)cc2)O[C@H]1CO | 0 | -6
C[C@H]1CN([C@@H](C)CO)C(=O)Cc2cc(NC(=O)c3ccncc3)ccc2O[C@@H]1CN(C)S(=O)(=O)c1ccc(F)cc1 | 11 | 0

Reprinted at random: 4 records from the list, in no set order.
molecule | Vaccinia stage Venus | Vaccinia stage
C[C@H]1CN([C@@H](C)CO)C(=O)c2cccc(NC(=O)c3nc4ccccc4s3)c2O[C@H]1CN(C)S(=O)(=O)c1cccs1 | 6 | 11
CCS(=O)(=O)N[C@H]1C=C[C@H](CC(=O)NCc2ccc(F)cc2)O[C@H]1CO | 0 | -6
Cc1noc(C)c1S(=O)(=O)Nc1ccc2c(c1)C(=O)N([C@H](C)CO)C[C@H](C)[C@@H](CN(C)C(=O)Nc1cccc3ccccc13)O2 | 7 | 15
CCC(=O)Nc1ccc2c(c1)C(=O)N(C)C[C@@H](OC)[C@H](C)CN(Cc1cccnc1)[C@H](C)CO2 | 2 | 6

An excerpt from above in order of length of the SMILES, lowest first.
molecule | Vaccinia stage Venus | Vaccinia stage
CCC(=O)Nc1ccc2c(c1)C(=O)N(C)C[C@@H](OC)[C@H](C)CN(Cc1cccnc1)[C@H](C)CO2 | 2 | 6
COCCNC(=O)[C@@H]1[C@@H](CO)[C@@H]2Cn3c(ccc(-c4ccc(F)cc4)c3=O)[C@H]1N2C(=O)NC(C)C | 5 | 5
C[C@H]1CN([C@@H](C)CO)C(=O)Cc2cc(NC(=O)c3ccncc3)ccc2O[C@@H]1CN(C)S(=O)(=O)c1ccc(F)cc1 | 11 | 0

Going on with the list.
molecule | Vaccinia stage Venus | Vaccinia stage
C[C@@H]1CN([C@@H](C)CO)C(=O)c2cc(NC(=O)Nc3ccc(F)cc3)ccc2O[C@H]1CN(C)CC1CCCCC1 | -13 | -26
COc1cccc(C#Cc2ccc([C@@H]3[C@@H](CO)N4C(=O)CN(C(=O)c5ccncc5)C[C@@H]34)cc2)c1 | . | ?
COc1ccc2c3c([nH]c2c1)[C@@H](CO)N(C(=O)c1ccc(F)cc1)CC31CCN(S(=O)(=O)c2cccs2)CC1 | -24 | -33
COc1ccccc1-c1ccc([C@@H]2[C@@H](CO)N(C(=O)C3CCOCC3)[C@H]2C#N)cc1 | -26 | -28
CCCC#Cc1cnc2c(c1)C(=O)N([C@@H](C)CO)C[C@H](C)[C@H](CN(C)C(=O)Cc1ccncc1)O2 | -3 | -2
C[C@H]1CN([C@@H](C)CO)C(=O)Cc2cc(NS(C)(=O)=O)ccc2O[C@@H]1CN(C)S(=O)(=O)c1ccc(Cl)cc1 | 15 | 16
COCC#Cc1ccc([C@@H]2[C@@H](CO)N3C(=O)CN(C(=O)CN4CCOCC4)C[C@H]23)cc1 | -3 | 1
O=C(C[C@@H]1C=C[C@H](NC(=O)C2CC2)[C@H](CO)O1)NCc1ccncc1 | 3 | -5
C[C@H](CO)N1C[C@H](C)[C@H](CN(C)Cc2ccc(C(F)(F)F)cc2)Oc2c(NC(=O)NC3CCCCC3)cccc2C1=O | -27 | -29
C[C@@H]1CN([C@@H](C)CO)S(=O)(=O)c2ccc(C#CCN(C)C)cc2O[C@@H]1CN(C)Cc1ccncc1 | -2 | 3
CNC[C@@H]1OCCCC[C@H](C)Oc2ccc(NC(=O)CCC(F)(F)F)cc2C(=O)N([C@@H](C)CO)C[C@@H]1C | 6 | 4
COCC#Cc1ccc2c(c1)O[C@H](CN(C)C(=O)CC1CC1)[C@H](C)CN([C@H](C)CO)S2(=O)=O | -2 | -4
COc1ccc(S(=O)(=O)Nc2ccc3c(c2)C(=O)N([C@@H](C)CO)C[C@@H](C)[C@@H](CN(C)C(=O)Cc2ccccc2)OCCCC[C@H](C)O3)cc1 | -13 | -18
CN(C)C(=O)C[C@@H]1C[C@@H]2c3cc(NC(=O)Nc4ccccc4F)ccc3O[C@@H]2[C@H](CO)O1 | 12 | 14
CCCC#Cc1cnc2c(c1)C(=O)N([C@@H](C)CO)C[C@@H](C)[C@H](CN(C)C(=O)c1cccnc1)O2 | 8 | 20
C[C@@H]1CN([C@H](C)CO)C(=O)c2cc(-c3cncnc3)cnc2O[C@@H]1CN(C)Cc1cncnc1 | 16 | 22
C[C@@H]1CN([C@H](C)CO)C(=O)c2c(c3ccccc3n2C)-c2ccccc2CO[C@H]1CN(C)Cc1ccc(F)cc1 | . | ?
COc1ccccc1CNC(=O)C[C@@H]1CC[C@H](NC(=O)CC2CC2)[C@H](CO)O1 | 4 | 8
COc1cccc(S(=O)(=O)N[C@@H]2CC[C@@H](CCNC(=O)Nc3cc(F)ccc3F)O[C@H]2CO)c1 | -1 | -7
CCNC(=O)C[C@H]1CC[C@H]2[C@@H](COC[C@@H](O)CN2Cc2ccccc2F)O1 | 2 | 11
C[C@H]1CN([C@@H](C)CO)C(=O)c2cc(C#CCN(C)C)cnc2O[C@@H]1CN(C)C(=O)c1cccnc1 | 10 | 27
C[C@@H]1CCCCO[C@@H](CN(C)C(=O)CCCN(C)C)[C@@H](C)CN([C@H](C)CO)C(=O)c2cc(NC(=O)Nc3cccc4ccccc34)ccc2O1 | 10 | 28
Cc1noc(C)c1NC(=O)Nc1ccc2c(c1)C(=O)N([C@@H](C)CO)C[C@H](C)[C@@H](CN(C)Cc1ccncc1)O2 | 9 | 9
COCC(=O)N1[C@H](C#N)[C@H](c2ccccc2-c2ccc(C)cc2)[C@@H]1CO | -2 | 5
C[C@H](O)C#Cc1ccc2c(c1)O[C@H](CN(C)C(=O)C1CCC1)[C@H](C)CN([C@H](C)CO)S2(=O)=O | -1 | -4
CC(C)C#Cc1cnc2c(c1)C(=O)N([C@@H](C)CO)C[C@@H](C)[C@@H](CN(C)C(=O)Cc1ccccn1)O2 | 0 | 0
CN(C)Cc1cn(CC[C@@H]2CC[C@@H](NC(=O)Cc3cccnc3)[C@H](CO)O2)nn1 | 9 | 4
CC(C)CC#Cc1ccc([C@H]2[C@@H](CO)N3C(=O)CN(C(=O)c4cccc(F)c4)C[C@@H]23)cc1 | -12 | -28
C[C@@H]1CCCCO[C@@H](CN(C)S(=O)(=O)c2ccc(F)cc2)[C@H](C)CN([C@@H](C)CO)C(=O)c2cc(N(C)C)ccc2O1 | -18 | -27
C[C@@H]1CCCCO[C@H](CN(C)Cc2ccncc2)[C@H](C)CN([C@H](C)CO)C(=O)c2cc(NC(=O)Cc3ccccc3)ccc2O1 | -10 | -9
COc1cccc(CNC(=O)C[C@@H]2C=C[C@H](NC(=O)C3CCOCC3)[C@@H](CO)O2)c1 | -4 | 6
C[C@H](CO)N1C[C@H](C)[C@H](CN(C)C(=O)Nc2ccc(F)cc2)Oc2c(cccc2N(C)C)C1=O | 13 | 25
COc1ccccc1-c1ccc2c(c1)[C@H]1[C@H](CCN1S(=O)(=O)c1ccccc1F)[C@@H](CO)N2 | -6 | -5
COc1ccccc1S(=O)(=O)N(C)C[C@H]1OCc2ccccc2-c2c(n(C)c3ccccc23)C(=O)N([C@H](C)CO)C[C@H]1C | . | ?
C[C@@H]1CN([C@H](C)CO)C(=O)c2cc(-c3cccc(C(=O)N(C)C)c3)cnc2O[C@@H]1CN(C)S(=O)(=O)c1cccc(F)c1 | 16 | 19
O=C(CCN1CCCCC1)N[C@H]1CC[C@H](CCNS(=O)(=O)c2ccc(Cl)cc2)O[C@H]1CO | 1 | 2

One compound at a time, from the list above. Order of screens: Vaccinia stage Venus, Vaccinia stage
Shown for C[C@@H]1CN([C@H](C)CO)C(=O)c2cc(-c3cccc(C(=O)N(C)C)c3)cnc2O[C@@H]1CN(C)S(=O)(=O)c1cccc(F)c1 → 16, 19
Shown for C[C@@H]1CCCCO[C@@H](CN(C)S(=O)(=O)c2ccc(F)cc2)[C@H](C)CN([C@@H](C)CO)C(=O)c2cc(N(C)C)ccc2O1 → -18, -27
Shown for COCC(=O)N1[C@H](C#N)[C@H](c2ccccc2-c2ccc(C)cc2)[C@@H]1CO → -2, 5

Screening results: PubChem, Broad Institute
